Bioassay records as filed in PubChem.
GLA inh pH 4.5: qHTS Assay for Inhibitors of Human alpha-Galactosidase at pH 4.5; purified enzyme, 4-MU-alpha-Gal fluorescence, pH 4.5; 230,000 tested, under 10 active; Alpha-galactosidase A (Homo sapiens), P06280; AID 1467, 2008; activity change, negative = inhibition, % at 105 µM; inconclusive = small, poorly fitted or top-dose-only inhibition, or a rising curve; inactive = flat fitted curve, though single readings scatter; no compound was filed as active;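 also: 0% = full activity with enzyme and -100% = basal without enzyme; dose as in the result columns while the protocol names 77 µM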
Target sequence (P06280 whole entry, looked up): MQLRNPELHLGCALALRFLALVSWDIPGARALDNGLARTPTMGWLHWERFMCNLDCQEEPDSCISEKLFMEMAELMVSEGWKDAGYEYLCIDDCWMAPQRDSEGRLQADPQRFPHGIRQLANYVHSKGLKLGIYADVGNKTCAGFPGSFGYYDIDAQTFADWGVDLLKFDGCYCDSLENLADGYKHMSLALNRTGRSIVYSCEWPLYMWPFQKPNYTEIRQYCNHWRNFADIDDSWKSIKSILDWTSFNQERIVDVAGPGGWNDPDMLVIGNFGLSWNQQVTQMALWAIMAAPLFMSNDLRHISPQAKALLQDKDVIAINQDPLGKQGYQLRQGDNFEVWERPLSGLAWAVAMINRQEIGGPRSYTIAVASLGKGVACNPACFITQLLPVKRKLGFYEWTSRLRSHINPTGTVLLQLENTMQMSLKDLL
Rango dissoc inh: qHTS Assay for Inhibitors of RanGTP induced Rango (Ran-regulated importin-beta cargo) - Importin beta complex dissociation; Snurportin-1 (Homo sapiens) + GTP-binding nuclear protein Ran (Homo sapiens) + Importin …; Biochemical FRET Rango-importin beta, RanGTP-induced dissociation; Potency, µM (doses to about 46.1 µM), inactives show at the top dose activity change, negative = inhibition; actives 0.071% (n = 340,000); active means falling FRET ratio curve, often poorly fitted, with flat reads before Ran was added; inconclusive means other falling curves, or compound fluorescence or quenching; inactive means flat or rising ratio curve;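 also: potency is read from the fitted curve at half-maximal effect; % of control where 0% means no effect; nearly all actives have a fitted effect of over 45% in size; -100% = wells without RanGTP and RCC1; the record marks most hits as doubtful in a second field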
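Rango FRET biosensor (snurportin-1 IBB flanked by N-terminal EYFP and C-terminal CFP10) at 0.1 uM, with 0.25 uM importin beta in PBS, 1mM DTT, 0.02% Tween-20, 0.1% BSA. 0.6 uM Ran, 2mM GTP and 0.2 uM RCC1 were then added for 45 min at room temperature. Inhibition read as loss of FRET rise.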
Rango-impB inh: qHTS Assay for Inhibitors of Rango (Ran-regulated importin-beta cargo) - Importin beta complex formation; AID 540263, 2011; actives 0.031% (n = 340,000); Importin subunit beta-1 (Homo sapiens), Q14974; Potency, µM (top dose mostly 92.2 µM), for inactives: top-dose inhibition of complex formation; Rango CFP/YFP FRET sensor + importin beta, 45 min; active = rising FRET ratio curve, often small or poorly fitted; inconclusive = mostly compound fluorescence or quenching in the first reads; inactive = flat curves in all reads;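 also: potency is read from the fitted curve at half-maximal effect; 0% = DMSO wells and 100% = buffer wells lacking importin beta; nearly all actives have a fitted effect of over 15% in size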
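FRET biosensor Rango (snurportin 1 IBB between N-terminal EYFP and C-terminal Cerulean), 50 nM in PBS/1 mM DTT/0.02% Tween-20/0.1% BSA, preincubated 5 min RT with compound; 0.125 microM importin beta added, 45 min RT, CFP/YFP FRET ratio read.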
miR-21 reporter: qHTS Assay for Modulators of miRNAs and/orActivators of miR-21; HeLa miR-21 FLuc reporter, luciferase, 48 h; 340,000 tested, under 10 active; Potency, µM (series often up to 38.3 µM), without a hit: at the top dose reporter change, positive = more light; active = well fitted rising curve with a large enough effect; inconclusive = small, poorly fitted or top-dose-only effect; inactive = no such curve, though single readings can be large or run the other way;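 also: % of control where 0% means no effect; miR-21 action dims this reporter so a rising signal means less miR-21 action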
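Compounds were titrated across several concentrations (up to approximately 40 uM) and incubated 48 hours with HeLa miR-21-FLuc reporter cells (miR-21 target sequence downstream of FLuc, endogenous miR-21). Readout was firefly luciferase luminescence after lytic detection reagent.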
Starred values were filed as active, the others as inactive; u = inconclusive; x = not tested or not shown; & = joins results of further samples. Some of the compounds tested; rates above refer to the full screens.

SMILES	GLA inh pH 4.5	Rango dissoc inh	Rango-impB inh	miR-21 reporter
O=C(COc1ccc(Cl)cc1)NCCCNC(=O)c1cccnc1	x	-1.8%	0.2%	u
CC(C)(C)OC(=O)N/N=C/c1cccn1-c1ccc([N+](=O)[O-])cc1	-5.4	-5.1%	0.9%	-3.2%
Cc1cc(F)ccc1S(=O)(=O)N1CCCOC1CNC(=O)C(=O)NCCCN1CCOCC1 (stereo not given)	x	-4.5%	3.9%	-0.2%
COc1ccc(Cl)cc1N(C(=O)Nc1cccc(Cl)c1)C1=NCC(C)S1 (stereo not given)	-8.3	-17.7%	4.4%	-20.4%
CCOC(=O)c1cc2sc(C)cc2n1CC(=O)N1CCN(C(=O)c2ccco2)CC1	0.7	-8.0%	-1.7%	-1.7%
Cc1ccc(S(=O)(=O)N(C)c2ccc(OCC(=O)Nc3nc4ccccc4s3)cc2)cc1	-6.5	-7.3%	-1.1%	26.0%
CC(NC(=O)c1ccccc1F)c1nnc(SCC(=O)NC2=NCCS2)n1C (stereo not given)	x	-3.4%	4.6%	0.2%
O=[N+]([O-])c1ccc(NN=C(c2ccccc2)c2ccccc2)nc1	x	-5.5%	1.1%	x
Cc1ccsc1C(=O)N1CCN(S(=O)(=O)c2cccc(F)c2)CC1	x	6.5%	5.8%	x
COC(=O)C1=C(C)N(Cc2ccccc2)C(=NCCCOC(C)C)N[C@H]1c1ccccc1	x	-7.0%	u	x
COc1ccc(S(=O)(=O)NCc2ccco2)cc1N(C)S(=O)(=O)c1ccccc1	4.1	-3.3%	4.3%	-3.2%
O=C(NNC(=O)C1CCN(Cc2cccc(F)c2)CC1)c1cccs1	-0.2	0.8%	-2.3%	1.8%

Quoted at random: 2 records from the list, in no set order.
SMILES	GLA inh pH 4.5	Rango dissoc inh	Rango-impB inh	miR-21 reporter
COC(=O)C1=C(C)N(Cc2ccccc2)C(=NCCCOC(C)C)N[C@H]1c1ccccc1	x	-7.0%	u	x
CCOC(=O)c1cc2sc(C)cc2n1CC(=O)N1CCN(C(=O)c2ccco2)CC1	0.7	-8.0%	-1.7%	-1.7%

(next part)
SMILES	GLA inh pH 4.5	Rango dissoc inh	Rango-impB inh	miR-21 reporter
CC(C)c1ccccc1NC(=O)COC(=O)COc1ccccc1[N+](=O)[O-]	6.3	-11.7%	-0.1%	-8.4%
NC(=O)c1ccccc1OCC(=O)O	0.1	-7.4%	-0.2%	2.0%
Cc1cc(NC(=O)CCSc2ccc(Cl)cc2)no1	6.7	8.1%	0.8%	-8.3%
Cc1cccc(/C(N)=N/OC(=O)Cc2cccs2)c1	6.8	-1.6%	-0.8%	-54.2%
CCCCNC(=O)Nc1ccccc1C(=O)NCc1ccco1	-1.7	-6.8%	-0.8%	-10.5%
COc1ccc(CNC(=O)C(C)N=C2NS(=O)(=O)c3ccccc32)cc1OC (stereo not given)	3.5	0.0%	5.0%	3.2%
CC(=O)N1c2ccc(S(=O)(=O)N3CCC(C(=O)N4CCN(c5cccc(C(F)(F)F)c5)CC4)CC3)cc2CC1C (stereo not given)	x	10.1%	2.4%	u
Cc1ccc(-c2csc3nc[nH]c(=S)c23)cc1	12.3	-11.3%	0.7%	-16.1%
CN(C)S(=O)(=O)c1cccc(C(=O)NCC2CCCO2)c1 (stereo not given)	-1.6	12.0%	-2.9%	-1.4%
O=C(Nc1cccnc1)c1ccccc1O	5.1	0.1%	-3.6%	-21.0%
O=C1NC2(CCCCC2)C(=O)N1CC(=O)N1CCc2ccccc21	x	8.6%	2.2%	x
S=c1[nH]nc(-c2n[nH]c3c2CCC3)n1/N=C/C=C/c1ccco1	2.5	-12.6%	-3.2%	5.6%
COCCOC(=O)C1=C(C)NC2=C(C(=O)CCC2)C1c1cc2c(cc1Br)OCO2 (stereo not given)	-2.0	-3.4%	u	0.3%
O=C(NCc1ccccc1)c1cc(-c2ccncc2)nc2ccccc12	x	17.9%	3.2%	0.8%
CCOc1ccc(NC(=O)Cn2cc(C(C)=O)c3ccccc32)cc1	x	-4.9%	-1.9%	3.5%
Cc1ccccc1NC(=O)CN1CCc2ccccc2C1	x	13.0%	-5.1%	1.2%
O=C(NCCCN1CCCCC1)c1ccc(CS(=O)c2ccc(Cl)cc2)o1 (stereo not given)	x	-17.0%	1.6%	-1.6%
CCOC(=O)c1cc([N+](=O)[O-])sc1NC(=O)c1ccc(S(=O)(=O)N2CC3(C)CC2CC(C)(C)C3)cc1 (stereo not given)	4.1	-11.4%	-6.1%	2.1%
COc1ccc(NC(=O)/C(C#N)=C\c2cc(C)n(-c3ccc(Oc4ccc([N+](=O)[O-])cn4)cc3)c2C)cc1	0.8	6.7%	-0.6%	-0.9%
CCn1c(SCC(=O)OC(C)C)nnc1-c1ccccc1	-5.1	3.8%	0.6%	0.5%
O=C(NNc1cccc(Cl)n1)Nc1ccc(F)cc1	-3.1	11.5%	2.0%	-9.1%
Cc1ccc(C)c(SCC(=O)Nc2cc(S(=O)(=O)N3CCOCC3)ccc2C)c1	x	14.7%	-0.2%	x
C[C@@H](C(=O)Nc1ccc2ccccc2c1)[C@H]1C[C@]1(C)[C@H](NP(=O)(c1ccccc1)c1ccccc1)c1ccccc1	-4.7&-6.2	x	x	21.6%
CCCOc1ccc(C(=O)Nc2ccccc2[N+](=O)[O-])cc1	x	-17.1%	8.7%	x
CCCCCC(C)n1[nH]c(=O)cc1N (stereo not given)	-0.1	4.1%	-3.6%	-0.2%
CSc1cccc(NC(=O)COc2cccc3ccccc23)c1	0.4	9.9%	-4.2%	-9.5%
CCN(CC(=O)Nc1ccc(OC)cc1)C(=O)c1ccc2[nH]c3c(c2c1)CC(C)CC3 (stereo not given)	x	1.2%	0.9%	x
COc1cc2c(cc1OC)C(C(=O)NCc1cccnc1)C(c1cccnc1)N(C)C2=O (stereo not given)	-0.8	-2.4%	1.1%	-4.6%
CN(CC(=O)N1CCN(c2ccccc2F)CC1)S(=O)(=O)c1cnc[nH]1	-10.1	11.9%	-4.4%	-1.3%
O=C(/C=C/c1ccccc1)CC(=O)c1ccccc1O	-7.4	u	u	-33.1%
CCOC(=O)[C@H]1[C@H]2COc3ccc(C)cc3[C@@H]2N2C(=O)CN(Cc3ccc(F)cc3)C(=O)[C@@]12C	x	-13.4%	-0.2%	x
O=C(NNS(=O)(=O)c1ccccc1[N+](=O)[O-])c1ccncc1	-3.0	8.2%	0.0%	-5.6%
Cn1c(CNC(=O)CNC(=O)c2ccccc2)cc(=O)n(C)c1=O	x	9.4%	-3.3%	-0.7%
Cc1nnc(NC(=O)Cc2cccs2)s1	5.4	1.0%	0.2%	-0.7%
CN(C)S(=O)(=O)c1ccc(N/C=C(\[N+](=O)[O-])S(=O)(=O)c2ccccc2)cc1	x	-3.1%	-1.5%	2.5%
O=C(NCC1CCCO1)c1cccc2ccccc12 (stereo not given)	x	2.8%	-3.5%	-5.9%
COc1ccc(Nc2nc(N3CCCCC3)c3ccccc3n2)cc1	-8.7	-8.5%	2.9%	18.0%
CCN1C(=O)CSC1=Nc1ccc(C(=O)O)cc1	x	2.3%	-0.1%	-4.2%
COc1cccc(CN(CC(=O)NCc2ccccc2)C(=O)c2csnn2)c1	x	-10.8%	-0.5%	12.8%
CCc1c(C)nc(N)n2c(SCC(=O)Nc3ccccc3)nnc12	0.7	-4.3%	0.0%	0.9%
COc1cc(OC)cc(-c2c(-c3ccc(F)cc3)c3cc(Br)ccc3n2C)c1	x	3.5%	3.6%	x
Cc1cc(C)n(-c2nc(C(F)(F)F)nc3ccccc23)n1	1.2	-12.6%	1.8%	-2.3%
Cc1cccc(OCCCC(=O)Nc2ccc(S(=O)(=O)Nc3onc(C)c3C)cc2)c1	5.2	5.8%	-2.3%	-3.0%
Cc1ccc(C(=O)N/C(=C\c2ccc(-c3ccc(Br)cc3)o2)C(=O)NCCCN(C)C)cc1	-10.9	u	-0.3%	u
CC1=C(C(=O)OCc2ccccc2)C(c2ccccc2Cl)NC(=O)N1CCCCCC(=O)O (stereo not given)	x	1.5%	u	-4.8%
N#Cc1ccc(NC(=O)Cn2cnc([N+](=O)[O-])c2)cc1	x	0.5%	-3.4%	1.7%
Cc1ccc(/C=C/C(=O)OCC(=O)N(CC(C)C)c2c(N)n(Cc3ccccc3)c(=O)[nH]c2=O)o1	x	-3.5%	u	x
Cc1nc(CN2CCCC2=NC#N)n(-c2ccccc2)n1	1.8	-5.3%	-1.0%	1.2%
O=C(CC(NC(=O)c1ccccc1)c1ccccc1)Nc1ccc(F)c(F)c1 (stereo not given)	-22.6	13.4%	3.7%	7.5%
CC(C)COc1ccc(S(=O)(=O)NNC(=O)c2cc3ccccc3o2)cc1	-1.9	-4.8%	-0.2%	-5.9%
O=C(CSc1nc2[nH]ncc2c(=O)[nH]1)Nc1ccc(F)cc1	x	-5.7%	0.3%	x
COc1ccccc1CNS(=O)(=O)CCNCc1ccco1	x	-6.1%	u	x
Cc1cc(C)nc(NC(=O)CSc2nccc(C)n2)n1	-1.4	28.0%	0.5%	2.3%
CCOc1ccc(S(=O)(=O)NCc2ccccc2OC)cc1	-4.1	10.9%	-0.8%	-1.1%
COc1ccc(COC(=O)N/N=C/c2cccs2)cc1	x	-7.0%	4.7%	-34.4%
Cc1ccc(S(=O)(=O)N2CCOCC2)cc1NC(=O)CSCc1c(C)noc1C	x	-4.5%	6.1%	x
Nc1c(N2CCCC2)cc(Cl)c2nonc12	-13.2	u	u	-5.9%
Cc1cccc(NC(=O)c2nc[nH]c2C(=O)N[C@@H](CC(C)C)C(=O)OCc2ccccc2)c1	-0.6	0.6%	-1.5%	-4.5%
COc1cccc(C(=O)CSc2nnc(-c3cc(OC)cc(OC)c3)o2)c1	5.1	20.2%	0.2%	-0.3%
Cc1cc(C)n(C(=O)CSc2nnc(SCC(=O)n3nc(C)cc3C)s2)n1	0.2	-5.4%	1.0%	0.8%
(list continues)
SMILES	GLA inh pH 4.5	Rango dissoc inh	Rango-impB inh	miR-21 reporter
CC(c1ccccc1)C1CC(=O)N(c2ccc(C(=O)O)cc2)C1=O (stereo not given)	-0.2	2.5%	-2.0%	-5.9%
COc1ccc(Cl)cc1NC(=O)CSc1nnc(C2CC2)n1C	x	7.7%	u	3.2%
Cc1ccc(-n2c(CCc3ccccc3)n[nH]c2=S)cc1C	x	-6.0%	4.1%	-8.0%
Cc1ccc(-c2nc3cnccn3c2Nc2ccccc2)o1	0.7	u	u	-64.4%
O=C1NC(c2ccc(Br)cc2)Nc2sc3c(c21)CCC3 (stereo not given)	5.9	-22.1%	u	-27.4%
Fc1ccc(CNCc2ccccc2Cl)cc1	-6.0	2.5%	2.8%	-7.8%
COC(=O)c1cccc(NS(=O)(=O)c2ccc(OC)c(OC)c2)c1C	-4.4	-16.6%	-0.1%	1.6%
O=C(CSc1nc2c(c(=O)n1-c1ccc(Cl)cc1)SCC2)NCC1CCCO1 (stereo not given)	-11.0	-7.7%	0.2%	-5.7%
COc1ccccc1OCc1ccc(C(=O)Nc2ccc(Cl)cn2)o1	1.2	13.2%	0.1%	-4.7%
C#CCOCCOCCOCCNc1nc(N2CCN(C(=O)CCCCCCCCCCNC(=O)[C@H](CO)n3cc(CCCSC)nn3)CC2)nc(N2CCN(C(=O)CCCCCCCCCCNC(=O)[C@H](CCCCN)n3cc(CCO)nn3)CC2)n1	x	7.1%	0.6%	x
COC(=O)c1ccc(/C=N/Nc2nc(N3CCCCC3)nc(N3CCCCC3)n2)cc1	0.5	7.7%	1.1%	-1.0%
O=C(/C=C/c1cccs1)N1CCC2(CC1)Oc1ccc(Cl)cc1C(=O)C21CC(c2cccnc2)=NO1 (stereo not given)	1.7	-8.2%	-1.3%	u
COc1ccc(S(=O)(=O)Nc2cccc3c2O[C@H](CN(C)CC2CCCCC2)[C@@H](C)CN([C@H](C)CO)C3=O)cc1	x	-2.9%	3.7%	x
